# Cruzain Triton: blocks cruzain activity in presence of Triton detergent. purified cruzain, Z-FR-AMC fluorescence, 0.01% Triton. Potency, µM, for the others: max response, negative = inhibition, actives largely listed as inhibitors. 200,000 compounds, 0.43% hits;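 also: plate controls were neutral wells for no effect and buffer without enzyme for full effect; nearly all actives have a fitted effect of over 40% in size; top concentration of the series not given in the record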
# Target sequence (P25779 123-467 limits assumed): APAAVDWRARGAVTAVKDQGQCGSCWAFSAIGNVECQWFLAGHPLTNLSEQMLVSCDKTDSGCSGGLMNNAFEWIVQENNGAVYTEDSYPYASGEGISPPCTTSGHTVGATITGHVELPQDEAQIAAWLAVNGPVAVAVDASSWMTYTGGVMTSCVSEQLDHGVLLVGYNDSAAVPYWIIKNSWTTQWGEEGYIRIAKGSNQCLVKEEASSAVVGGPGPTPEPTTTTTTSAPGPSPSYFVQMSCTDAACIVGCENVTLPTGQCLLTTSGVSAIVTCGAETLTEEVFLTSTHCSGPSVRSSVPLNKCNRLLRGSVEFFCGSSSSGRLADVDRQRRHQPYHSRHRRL
#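 Detergent-containing run (0.01% Triton X-100) in acetate buffer pH 5.5 with 5 mM DTT: enzyme at 1.5 nM final, 15 min compound preincubation at room temperature, then 2 uM Z-FR-AMC substrate. Activity taken as 60 s fluorescence increase at 360/450 nm.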
# NS1 function inh: inhibitors of influenza NS1 protein function; S. cerevisiae slowed by influenza A NS1, growth recovery by OD600; Potency, µM (doses to about 46.1 µM), inactives show at the top dose activity, positive = more growth; 270,000 compounds, 0.4% hits; AID 2326; active means well fitted rising curve with a large enough effect; inconclusive means small, poorly fitted or top-dose-only effect; inactive means no such curve, though single readings can be large or run the other way; also: nearly all actives have a fitted effect of over 50% in size
#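 A cell-based growth assay was used: compounds that relieve NS1-induced slow growth of budding yeast raise OD600. Assay medium was yeast nitrogen base with ammonium sulphate and -URA supplement, pH 6.0, with 2% galactose.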
# StopGo reporter: FMDV 2A StopGo reporter, luciferase signal; human cells with a luciferase reporter of 2A StopGo recoding; control for the full effect not named in the record; Potency, µM (top dose mostly 57.9 µM), for the others: at the top dose signal change, negative = less light; 410,000 compounds, 1.2% hits; active = well fitted falling curve with a large enough effect; inconclusive = small, poorly fitted or top-dose-only effect; inactive = no such curve, though single readings can be large or run the other way; tested in HEK293T cells; also: % is scaled to controls: 0 for no effect and ±100 for the full control effect; nearly all actives have a fitted effect of over 45% in size; luciferase light after 4 h
# Cruzain noTriton: inhibitors of Trypanosoma cruzi cruzain without detergent | P25779 | purified cruzain, Z-FR-AMC fluorescence, no detergent | Potency, µM, inactives show max response, negative = inhibition, actives largely listed as inhibitors | 200,000 compounds, 2.3% hits | AID 1476;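 also: plate controls were enzyme without inhibitor for no effect and buffer without enzyme for full effect; nearly all actives have a fitted effect of over 40% in size; top concentration of the series not given in the record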
#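 Detergent-free condition (0.00005% Triton X-100) in acetate buffer pH 5.5 with DTT. 1.5 nM enzyme and compound were pre-mixed 15 min, then 2 uM Z-FR-AMC substrate added; reaction progress from fluorescence change between first and third reads (60 s).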
# Lassa entry inh: Lassa virus entry inhibition. Lassa virus pseudotype entry inhibition, cell reporter; control for the full effect not named in the record. Potency, µM (top dose mostly 37.9 µM), for the others: at the top dose activity change, negative = inhibition, actives largely listed as inhibitors. 300,000 compounds, 1.2% hits. AID 540256; active means well fitted inhibition curve with a large enough effect; inconclusive means small, poorly fitted or top-dose-only effect, or effect the other way; inactive means flat fitted curve, though single readings scatter; tested in HEK293 cells; also: % is scaled to controls: 0 for no effect and ±100 for the full control effect; nearly all actives have a fitted effect of over 50% in size; luciferase read-out
# RE007 growth inh: less growth of the S. pombe RE007 Vpr strain; S. pombe RE007 Vpr strain, BacTiter-Glo ATP luminescence, 24 h; control for the full effect not named in the record; Potency, µM (highest dose often 92.2 µM), without a hit: at the highest dose activity change, negative = less growth; 360,000 compounds, 0.21% hits; active = well fitted falling curve with a large enough effect; inconclusive = small, poorly fitted or top-dose-only effect; inactive = no such curve, though single readings can be large or run the other way;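 also: % is scaled to controls: 0 for no effect and ±100 for the full control effect; nearly all actives have a fitted effect of over 50% in size; the assay follows cell death caused by Vpr and the record does not say whether a fall means rescue or toxicity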
#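 Fission yeast strain RE007, carrying one chromosomally integrated HIV-1 vpr copy, was seeded at OD 0.01 in PMG+AL medium with 23 nL pinned compound. After 24 h at 30 °C and 99% humidity, viability was read by BacTiter-Glo luminescence.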
# MARV entry inh: Marburg virus entry inhibition. Marburg virus pseudotyped entry inhibition, cell reporter; control for the full effect not named in the record; about a third of the inactives were read at about 46 µM. Potency, µM (doses to about 37.8 µM), inactives show at the highest dose activity change, negative = inhibition, most hits filed as inhibitors. 300,000 compounds, 1.8% hits. AID 540276; active = well fitted inhibition curve with a large enough effect; inconclusive = small, poorly fitted or top-dose-only effect, or effect the other way; inactive = flat fitted curve, though single readings scatter; tested in HEK293 cells; about a fifth of its hits are not listed in these tables; also: % is scaled to controls: 0 for no effect and ±100 for the full control effect; luciferase read-out
# SARS PLP yeast: blocks SARS-CoV papain-like protease in a yeast assay; 330,000 compounds, 0.19% hits; Potency, µM (titrated, usually from 32.9 µM), inactives show top-dose activity, positive = growth rescue; S. cerevisiae expressing SARS-CoV PLpro, growth rescue; control for the full effect not named in the record; active means well fitted rising curve with a large enough effect; inconclusive means small, poorly fitted or top-dose-only effect; inactive means no such curve, though single readings can be large or run the other way; also: 0% is about no effect; nearly all actives have a fitted effect of over 55% in size; growth read by luminescence after 48 h
# Starred values were filed as active, the others as inactive; ? = inconclusive; / = no result given; & = joins results of further samples; [ ] = dose if it differs, or a comment. Unless noted, calls follow the shape of the dose curve; as a rule, active = well fitted curve in the direction sought with a large enough effect; inconclusive = small, poorly fitted or top-dose-only effect, or another doubt; inactive = no such curve, though single readings can be large; an effect the other way counts as inactive or inconclusive. Potency is read from the fitted curve at half-maximal effect. Rows are unselected; 4.5% or so of the library scored in one or more.
# Sample of the layout (3 entries):
entry | molecule | Cruzain Triton | NS1 function inh | StopGo reporter | Cruzain noTriton | Lassa entry inh | RE007 growth inh | MARV entry inh | SARS PLP yeast
1 | COc1cc(/C=N\n2cnnc2)ccc1OCC(=O)Nc1ccc(C)cc1 | 2.5% | -4% | 8% | 2% | -14% | -2% | -19% | -6%
2 | CC1CCCCC1NC(=O)CN1C(=O)c2ccccc2S1(=O)=O (centres undefined) | / | 1% | 20% | / | / | -1% | / | -10%
3 | Cn1cccc1/C=N\NC(=O)C1COc2ccccc2O1 (centres undefined) | / | 2% | 11% | / | / | -6% | / | -2%

# The whole of this part, from the start:
entry | molecule | Cruzain Triton | NS1 function inh | StopGo reporter | Cruzain noTriton | Lassa entry inh | RE007 growth inh | MARV entry inh | SARS PLP yeast
1 | COc1cc(/C=N\n2cnnc2)ccc1OCC(=O)Nc1ccc(C)cc1 | 2.5% | -4% | 8% | 2% | -14% | -2% | -19% | -6%
2 | CC1CCCCC1NC(=O)CN1C(=O)c2ccccc2S1(=O)=O (centres undefined) | / | 1% | 20% | / | / | -1% | / | -10%
3 | Cn1cccc1/C=N\NC(=O)C1COc2ccccc2O1 (centres undefined) | / | 2% | 11% | / | / | -6% | / | -2%
4 | CC(C)CC(NC(=O)OC(C)(C)C)C(=O)NCc1ccccc1 (centres undefined) | -3.2% | -2% | -7% | -4% | -23% | 27% | ? | 9%
5 | Cc1cc(C)cc(Nc2cc(C(=O)NCCCN(Cc3ccccc3)C(C)C)c3ccccc3n2)c1 | -1.6% | / | ? | 0% | ? | / | / | /
6 | Nn1c(SCC(=O)NC2CCCC2)nnc1-c1ccccc1F | 2.4% | -2% | -21% | -3% | 0% | -6% | 20% | 5%
7 | O=C(Nc1cccc(C(=O)Nc2ccc(Br)cc2)c1)c1ccccc1 | / | -1% | 24% | / | / | -22% | / | -2%
8 | O=C(OCCN1CCCCC1)c1ccccc1Cl | 3.4% | -5% | 0% | -1% | 8% | 1% | 18% | 7%
9 | CC(C)NC(=O)Cn1cc(C(=O)C2CC2)c2ccccc21 | / | 1% | 9% | / | / | 0% | / | 1%
10 | O=C(Nc1ccc(Cn2cccn2)cc1)c1ccc(COc2ccccc2Br)cc1 | -3.3% | 4% | 14µM* | -17% | ? | -11% | -14%[46.1 µM] | -7%
11 | O=C(Cn1cnc2ccccc2c1=O)NCCC(=O)N1CCN(Cc2ccccc2)CC1 | 1.1% | -4% | 0% | 8% | 4% | 10% | ? | -1%
12 | COc1ccc(OC)c(NC(=O)c2c(C)oc3ncnc(N4CCOCC4)c23)c1 | -2.5% | / | -11% | ? | 17%[46.1 µM] | / | / | /
13 | CCOc1ccc(Oc2cc(NC(=O)c3ccco3)cc([N+](=O)[O-])c2)cc1 | -5.4% | -115% | -17% | ? | ? | 39% | -8% | -38%
14 | O=C(c1ccccc1Cl)N1N=C(c2cccs2)CC1c1cccc(O)c1 (centres undefined) | / | 4% | -8% | / | / | 0% | / | 0%
15 | O=C(Nc1ncccc1O)c1c(O)c2ccccc2[nH]c1=O | / | -35% | 0% | / | / | -3% | / | -1%
16 | CCN(C(=S)Nc1ccccc1F)C1CCCCC1 | 0.3% | 1% | / | 3% | -1% | 14% | -4% | 4%
17 | C(=N\Nc1nc2ccccc2[nH]1)/c1c[nH]c2ccccc12 | ? | 11% | -24% | 16µM* | ? | 7% | ? | 17%
18 | O=C1NC(=O)N(C2CCCCC2)C(=O)C1C1c2ccccc2C(=O)N1Cc1ccccc1 (centres undefined) | 3.2% | -1% | -9% | 6% | -6% | -1% | 14% | 3%
19 | COc1cc(/C=N/NC(=O)c2ccncc2)cc(OC)c1OC | / | 2% | 8% | / | -5% | 5% | -7% | 4%
20 | CC(=O)c1sc(C(C)(C)C)cc1NC(=O)/C=C/C(=O)O | / | 0% | ? | / | -16%[46.1 µM] | -7% | -15%[46.1 µM] | 0%
21 | CCCc1cc(=O)oc2cc(OCC(=O)NC(Cc3c[nH]c4ccc(O)cc34)C(=O)O)c(Cl)cc12 (centres undefined) | / | 27% | 3% | / | / | -7% | / | 5%
22 | CNC(=O)c1c(NC(=O)c2ccc(S(=O)(=O)N3CCCCC3)cc2)sc2c1CCN(C(C)C)C2 | / | 10% | 1% | / | / | 6% | / | -3%
23 | CCCn1c(=N)n(CC(O)c2ccc(C)cc2)c2ccccc21 (centres undefined) | / | -1% | -16% | / | -20%[46.1 µM] | -11% | ? | 1%
24 | O=C(Nc1ccc(Cl)cc1)N1CCSC1=NCc1ccccc1 | / | -1% | 0% | / | -1% | 8% | 17% | 2%
25 | COc1ccc(-c2nnc(SC(C)C(=O)NCc3ccc4c(c3)OCO4)n2Cc2ccco2)cc1 (centres undefined) | -1.9% | 2% | -16% | -5% | -14% | 3% | ? | -2%
26 | CCCCOC(=O)C1=C(C)Nc2nnnn2C1c1ccc(OC)c(OC)c1OC (centres undefined) | -4.0% | 2% | -24% | 13% | -18% | 0%[3.69 µM] | -35% | 3%
27 | CCOC(=O)c1c(CCl)nc2ccccc2c1-c1ccccc1 | / | 4% | ? | / | 11%[46.1 µM] | -9% | ? | -2%
28 | COc1ccc(CN2C(=O)NC(=O)/C(=C/c3ccc([N+](=O)[O-])s3)C2=O)cc1 | / | -1% | ? | / | -4%[46.1 µM] | ? | ? | -4%
29 | CCCN1CCN(c2ncnc3sc(C(=O)Nc4ccc(OC(F)(F)F)cc4)c(C)c23)CC1 | -9.4% | / | -17% | 29% | 1%[46.1 µM] | / | / | /
30 | COC(=O)[C@H](CC(C)C)NC(=O)Nc1cccc(Br)c1 | -5.3% | -7% | -9% | 2% | ? | -1% | -6% | -20%
31 | CC1CCN(S(=O)(=O)c2ccc(NC(=O)c3cccs3)cc2)CC1 | -6.7% | -13% | -8% | -4% | ? | -1% | ? | -2%
32 | Nn1c(Cc2ccccc2)n[nH]c1=S | / | 0% | 7% | / | 3%[46.1 µM] | 8% | -2%[46.1 µM] | 2%
33 | CC(=O)COC(=O)C1=NN(c2ccccc2)C(=O)CC1 | / | 7% | 6% | / | ? | -15% | 3% | -3%
34 | Cc1cc(C)cc(NC(=O)C2CCN(S(=O)(=O)c3cccc4nonc34)CC2)c1 | 2.6% | / | -23% | -9% | 0%[46.1 µM] | / | / | /
35 | COc1ccc2c(c1)N(C(=O)CN1C(=O)C3CCCCC3C1=O)C(C)(C)C=C2C (centres undefined) | -7.0% | 3% | -11% | ? | -9% | -4% | -9%[46.1 µM] | 16%
36 | CCOC(=O)N1CCC(=NNc2ccnc3cc(Cl)ccc23)CC1 | / | / | -10% | / | 14% | -10% | ? | -5%
37 | CCCCCC(=O)NNC1CC(=O)N(c2cccc(OCC)c2)C1=O (centres undefined) | / | 12% | -12% | / | -2% | -3% | 21%[46.1 µM] | 1%
38 | Cc1nnc(NC(=O)c2cc(-c3ccncc3)nc3c(C)cccc23)s1 | / | -86% | -16% | / | / | -5% | / | -14%
39 | O=C(Cn1c(=O)n(Cc2ccc(C(=O)NCc3ccc4c(c3)OCO4)cc2)c(=O)c2ccccc21)Nc1cccc(Cl)c1 | -1.3% | / | -4% | 4µM* | -10%[46.1 µM] | / | -9%[46.1 µM] | /
40 | COc1ccc(N(Cc2cccs2)C(=O)c2ccc(C(C)(C)C)cc2)cc1 | -12% | / | -4% | -4% | -2%[46.1 µM] | / | ? | /
41 | CCCn1cc(CN2CCC(Cc3cccc(F)c3)(C(=O)OCC)CC2)c(C)n1 | / | -8% | 33%[activator] | / | / | -6% | / | 0%
42 | O=C(NCCC1=CCCCC1)C1CCCN(S(=O)(=O)c2ccccc2)C1 (centres undefined) | 2.2% | -10% | 0% | -3% | ? | 7% | ? | 13%
43 | CCCCCCCCNC(=O)CC(NS(=O)(=O)c1ccc(NC(C)=O)cc1)C(C)C (centres undefined) | -0.8% | 2% | 12% | ? | 2.1µM* | -2% | 8%&-22% | 11%
44 | CC(C)C(NC(=O)CC12CC3CC(CC(C3)C1)C2)C(=O)O (centres undefined) | 12% | 1% | -18% | 10% | 13% | 2% | ? | 0%
45 | CC(=O)c1ccc(C(=O)N2CCCC(Nc3ccc(C(C)C)cc3)C2)s1 (centres undefined) | / | 12% | ? | / | / | 2% | / | -1%
46 | COc1cc(C(=O)NCCOc2cc(C)cc(C)c2)cc(OC)c1OC | / | 3% | -22% | / | / | 23% | / | -2%
47 | CC(C)=N/N=C(\N)SCc1ccccc1 | / | -5% | -6% | / | ? | -21% | 15%[46.1 µM] | 2%
48 | Cc1ccc(Cn2nnc(C(=O)Nc3cccc(C)c3C)c2N)cc1 | -2.5% | -7% | -23% | -3% | -2% | -9% | ? | 2%
49 | CC1CCN(C(=O)/C(=C/c2ccccc2Cl)c2ccccc2)CC1 | -9.9% | -139% | -12% | 1% | ? | 9% | ? | -23%
50 | O=C(O)COc1ccccc1/C=N/NC(=O)CSc1nnc(SCc2cccc3ccccc23)s1 | / | 3.5µM* | 18% | / | 3%[46.1 µM] | -10% | 3%[46.1 µM] | -1%
51 | C/C(=N/NC(=O)c1nnn(-c2nonc2N)c1COc1ccccc1)c1ccccc1Cl | / | 19% | ? | / | / | 19% | / | 0%
52 | N#Cc1ccccc1Cn1cc(C#N)c2ccccc21 | -9.5% | -1% | ? | -11% | ? | -12% | ? | 22%
53 | O=C(c1ccc(F)cc1F)N1CCCc2ccccc21 | / | -4% | -2% | / | / | -18% | / | -1%
54 | Nc1nnc(CC(c2ccccc2)c2ccccc2)s1 | -1.0% | 10% | -26% | 1% | -2% | 8% | ? | 6%
55 | CCC(C)N(C(=O)COC(=O)COc1c(C)cc(C)cc1C)C1CCS(=O)(=O)C1 (centres undefined) | / | / | -17% | / | 2% | -25% | 0% | -1%
56 | O=C(CSc1nnc2scc(-c3ccccc3)n12)NCc1ccco1 | -1.5% | -2% | -17% | -7% | 8%&8% | 4% | -8%&4% | 14%
57 | Cc1ccc(Oc2nc(-c3ccccc3)ncc2S(C)(=O)=O)cc1 | -2.9% | 12% | 0% | -1% | 8% | 26% | ? | -1%

# Screens from PubChem BioAssay.
